Compound activity: PubChem BioAssay, several laboratories
Bead autofluor = compound fluorescence in toxin protease inhibitor counterscreen; compound autofluorescence counterscreen, microsphere flow cytometry; hits give high values; fluorescence intensity (no concentration beside the values); hit rate 3.1% among 360,000; AID 624483;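 active means at least 3 SD above the mean of all compounds, about 16000 in these data; inconclusive means too few beads counted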;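 further: 100 nL of 1 mM stock went into each well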
Sa RN4220 lethal = growth inhibition of S. aureus RN4220, primary screen, OD600; 16 h; inhibition, % (concentration not given with the values); hit rate 0.33% among 330,000; AID 1259311, 2017;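 active means z-score of -3 or lower and OD600 up to 0.18 on both plates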;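 further: plate controls were untreated cells for no effect and reference antibiotic for full effect; stock transfer was 100 nL into about 80 µL; one replicate is shown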
ugtP null kill = growth inhibition of ugtP-null S. aureus, primary screen, RN4220 ugtP deletion, OD600 | 16 h; some inactives read as strong as hits | growth inhibition, % (test concentration not listed) | hit rate 0.54% among 330,000;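 active means z-score under -3 and OD600 up to 0.15 on both plates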;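 further: plate controls were untreated wells for no effect and antibiotic for full effect; wells of about 80 µL received 100 nL stock; the first replicate is given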
Mtb hypoxia rep = PubChem AID 1159583 | M. tuberculosis hypoxia-regulated fluorescent reporter, fluorescence | fluorescence inhibition, % (concentration not given with the values) | hit rate 0.1% among 300,000;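 active means 35 to 45% if threefold the growth effect, above 45% if 1.5-fold the growth effect; inactive means the rest, general growth blockers included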;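 further: wells of about 50 µL received 100 nL stock; 0% = vehicle wells and 100% = reference inhibitor wells; whole bacteria with a GFP reporter of the hypoxia response; strong numbers were not always called active; many hits fall short of the cut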
PrP 5UTR inh = inhibition of PrP 5' UTR reporter expression; cell-based PrP 5' UTR mRNA reporter, plate reader; inhibition, % (no concentration beside the values); hit rate 0.35% among 340,000;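 active means every replicate at 50% or more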;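 further: 0 = median of the neutral control wells; tested in H4 reporter cells; numbers are from one replicate; inactives centre near -14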
BJeLR lethal = MLPCN primary cell-based screen for lethality selective to Ras in HRASV12 cells. inhibition, % (concentration not given with the values). BJeLR (HRASV12) viability, CellTiter-Glo ATP luminescence, 48 h; reference of the scale not given here. hit rate 0.17% among 300,000;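 active means replicate mean above 50%; inconclusive means above 50% but judged a plate artefact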;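 further: 50 nL library stock added to about 25 µL; numbers are from one replicate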
Mtb hypoxia rep growth = recorded beside Mtb hypoxia rep, whose call it bears; growth inhibition, %; measured here: M. tuberculosis growth (absorbance);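 0% = vehicle and 100% = reference antibiotic; read after six days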
* hit, by the source's call; ? = inconclusive; / = no result given; & = joins results of further samples.

SMILES	Bead autofluor	Sa RN4220 lethal	ugtP null kill	Mtb hypoxia rep	Mtb hypoxia rep growth	PrP 5UTR inh	BJeLR lethal
COc1cc(CN2CCN(c3ncccn3)CC2)cc(OC)c1	4013	1.4	9.6	7.1	3.0	-4.4	-3.0
O=C(CN1CCOCC1)OCCCc1ccccc1	3867	-0.8	3.7	/	/	-11.6	0.2
CC1CCN(C(=O)c2ccc(S(=O)(=O)N3CCOCC3)cc2)CC1	3548	-5.2	-2.0	-12.6	4.1	-5.1	1.6
CC(=O)Nc1cccc(Nc2nc(-c3cccs3)nc3ccccc23)c1	3200	-3.2	-19.7	-11.3	5.1	11.2	-8.3
Cc1cc(N/N=C/c2ccc(O)cc2)c2cccc(C)c2n1	4288	/	/	/	/	-21.5	1.8
COc1ccc(C=NNC(=O)c2ccc(O)cc2)cc1CN1CCCc2ccccc21	/	-8.4	14.3	2.4	6.6	/	/
CC(c1nnc(SCC(=O)Nc2cccnc2Cl)n1-c1ccccc1)N(C)C (stereo not drawn)	2724	6.6	8.9	-1.7	-1.5	-6.8	-5.3
O=C(O)CN1C(=O)/C(=C\c2ccc(OC(=O)c3ccco3)cc2)SC1=S	5781	0.1	-2.8	-0.4	14.1	-7.2	-0.7
O=C(CC1C(=O)NCCN1Cc1ccccc1)NC1CCCCCC1 (stereo not drawn)	5737	0.3	0.5	5.0	1.0	-17.4	4.2
O=C(Cn1nnc(-c2cccs2)n1)NCc1cccs1	4513	-0.5	2.5	2.7	5.0	-19.3	-5.5
O=C(Nc1ccccc1)C(O)C(O)C(=O)Nc1ccccc1 (stereo not drawn)	4218	1.9	-0.2	/	/	17.2	5.2
CCN(C[C@H]1N[C@@](CC)(C(=O)OC)[C@H]2C(=O)N(Cc3ccccc3)C(=O)[C@@H]12)S(=O)(=O)c1ccc(OC(F)(F)F)cc1	3562	2.5	-6.0	-5.5	3.8	0.2	/
CCCOc1ccccc1NC(=O)c1c(-c2ccccc2)noc1C	5347	4.3	6.6	/	/	-27.3	8.2
Cc1ccccc1-c1cc(C(=O)Nc2sc(C)c(C)c2C(N)=O)c2ccccc2n1	2806	-0.5	-2.1	/	/	-17.7	2.8
Cc1c(C(=O)Nc2ccc(F)cc2)nnn1-c1cccc(C(F)(F)F)c1	4303	11.9	4.9	6.3	13.1	-25.5	16.9
O=C(Nc1cc(C(F)(F)F)ccc1Cl)C(Sc1ccccn1)c1ccccc1 (stereo not drawn)	5225	-10.1	63.0	-7.1	-3.1	-22.9	-5.8
CCN(CC)C(=O)Cn1cc(C(=O)C(=O)N(C)C2CCN(C)CC2)c2ccccc21	4888	2.2	2.6	0.1	-2.1	-6.8	-3.6
Cc1ccc(Oc2cc(-n3nc(C)cc3C)ncn2)cc1	22017*	9.1	-0.2	9.9	22.8	-50.0	4.4
CCCCCc1ccc(-c2ccc(OC)cc2)nc1	2238	23.5	78.5	1.3	3.4	-69.1	0.8
COc1ccc(CCNC(=O)CSc2nc(C)cc(C)n2)cc1OC	2716	3.1	0.0	-2.3	-2.7	-7.4	1.8

Random excerpt: three records from the list, in no set order.
SMILES	Bead autofluor	Sa RN4220 lethal	ugtP null kill	Mtb hypoxia rep	Mtb hypoxia rep growth	PrP 5UTR inh	BJeLR lethal
O=C(Cn1nnc(-c2cccs2)n1)NCc1cccs1	4513	-0.5	2.5	2.7	5.0	-19.3	-5.5
COc1ccc(CCNC(=O)CSc2nc(C)cc(C)n2)cc1OC	2716	3.1	0.0	-2.3	-2.7	-7.4	1.8
CC(c1nnc(SCC(=O)Nc2cccnc2Cl)n1-c1ccccc1)N(C)C (stereo not drawn)	2724	6.6	8.9	-1.7	-1.5	-6.8	-5.3

Back to the main list with the three entries that preceded the break.
SMILES	Bead autofluor	Sa RN4220 lethal	ugtP null kill	Mtb hypoxia rep	Mtb hypoxia rep growth	PrP 5UTR inh	BJeLR lethal
Cc1ccc(Oc2cc(-n3nc(C)cc3C)ncn2)cc1	22017*	9.1	-0.2	9.9	22.8	-50.0	4.4
CCCCCc1ccc(-c2ccc(OC)cc2)nc1	2238	23.5	78.5	1.3	3.4	-69.1	0.8
COc1ccc(CCNC(=O)CSc2nc(C)cc(C)n2)cc1OC	2716	3.1	0.0	-2.3	-2.7	-7.4	1.8
OC(COCc1ccc(Cl)cc1)CN1CC=C(c2ccccc2)CC1 (stereo not drawn)	3469&3860	-3.2&-8.9	-6.3&-3.4	0.6&4.8	2.4&0.1	-15.3	-3.1
O=[N+]([O-])c1ccc(CNc2ccc(F)cc2)s1	3614	6.1	4.0	10.9	7.5	-19.1	-13.6
O=S(=O)(Nc1ccccc1N1CCOCC1)c1ccc(Cl)s1	5526	8.9	-0.5	9.0	6.9	-4.6	2.9
COc1ccccc1-c1nnc(NC(=O)c2ccc3ncsc3c2)o1	2218	/	/	/	/	-14.6	4.0
COc1ccccc1NC(=O)COc1cc(Br)c(CNCCCN2CCOCC2)cc1OC	4916	2.3	-4.2	-1.2	3.4	-3.3	19.4
O=[N+]([O-])c1ccccc1S(=O)(=O)Oc1ccc(C=Nn2cnnc2)cc1	/	14.2	2.2	6.8	3.3	/	/
CCN(CC(=O)NCc1cccs1)C(=O)/C=C/c1ccc(C)cc1	8543	0.8	-3.7	-3.0	7.6	4.5	/
COc1ccc(N2CCN(C(=O)CCCn3c(=O)[nH]c4cc(Cl)ccc4c3=O)CC2)cc1	3489	4.0	-0.5	9.4	12.7	-9.7	3.8
c1ccc(CSC2=NCCCN2)cc1	3814	5.6	-7.5	6.6	12.3	-14.2	0.4
COc1cc(C(=O)NC(=S)NNC(=O)c2ccc3c(c2)OCO3)cc(OC)c1OC	/	22.9	18.6	2.5	8.5	-21.1	5.2
C/C(O)=C(/N=O)C(=O)Nc1ccccc1	7066	0.0	1.8	11.4	-2.1	-51.6	5.1
C=CCn1c(O)c(C(C)=NCCc2c[nH]c3ccccc23)c(=O)[nH]c1=O	5576	4.5	7.9	16.5	1.5	-17.8	-4.5
Cc1cc(N2CCN(Cc3cn(C)nc3-c3cccc(Cl)c3)CC2)cc(C)n1	3898	-1.5	4.8	-0.4	12.5	-30.9	40.8
CCOc1ccccc1NC(=S)NC1CCCCC1	2489	5.7	7.7	-7.4	8.7	-25.3	-2.4
Cc1cc(NC(=O)CCC(=O)N(CC(=O)NCC2CCCO2)c2cccc(C)c2C)no1 (stereo not drawn)	3003	4.0	4.6	12.6	3.4	-10.6	-13.5
Cc1cccc(OC(C)C(=O)N2CCCc3ccccc32)c1 (stereo not drawn)	2481	7.0	-1.0	15.8	9.3	-11.9	3.4
CCOc1ccccc1NC(=O)COc1ccc2c(c1)OCO2	3605	4.6	2.8	9.9	7.6	-17.6	3.0
Cc1ccc(NCCC(=O)c2cccc([N+](=O)[O-])c2)c(C)c1	10157	2.3	19.4	5.4	2.6	-18.4	11.8
Cc1ccc(N2C(=O)NC(=O)/C(=C/c3cnc(-c4ccccc4)nc3)C2=O)cc1C	2247	1.5	5.5	9.4	3.3	-14.9	1.4
Nc1c(C(=O)NCc2ccco2)nnn1-c1ccccc1	3877	4.7	-8.3	16.3	13.5	-49.7	-8.7

The closing two records of the section above come first, to join the parts:
SMILES	Bead autofluor	Sa RN4220 lethal	ugtP null kill	Mtb hypoxia rep	Mtb hypoxia rep growth	PrP 5UTR inh	BJeLR lethal
Cc1ccc(N2C(=O)NC(=O)/C(=C/c3cnc(-c4ccccc4)nc3)C2=O)cc1C	2247	1.5	5.5	9.4	3.3	-14.9	1.4
Nc1c(C(=O)NCc2ccco2)nnn1-c1ccccc1	3877	4.7	-8.3	16.3	13.5	-49.7	-8.7
CCC(C)Sc1nc2c(c(=O)[nH]c(=O)n2C)n1Cc1ccc(Cl)cc1 (stereo not drawn)	2158	3.1	-4.8	/	/	9.6	1.3
CN(C)c1nc(Cl)nc(NCCOc2ccccc2)n1	7495	-0.1	2.4	6.8	-0.8	-9.1	-1.9
COC(=O)c1c(N2C(=O)[C@H]3[C@@H](C2=O)[C@]2(C(=O)Nc4ccccc42)N2CCC[C@@H]32)sc(C)c1C	/	6.7	2.7	8.9	2.0	/	3.0
CC(=O)c1ccc(OCCCC(=O)NCC(c2ccco2)N(C)C)cc1 (stereo not drawn)	4623	0.3	-1.5	5.5	-1.7	-24.8	10.4
COc1cc(C=NNC(=S)NCc2ccco2)cc(OC)c1OC	/	2.2	5.4	13.2	2.6	/	/
Cc1cccc(C2C3C(=O)N(Cc4ccccc4)C(=O)C3[C@]3(Cc4ccccc4)C(=O)N(c4ccc(C(F)(F)F)cc4)C(=O)N23)c1 (stereo partly drawn)	/	2.3	-18.0	2.7	0.4	/	/
Cc1nc2nc(SCc3nc4ccccc4[nH]3)[nH]c2cc1Br	5708	1.0	-14.4	5.7	2.6	/	1.8
NC(=O)[C@@H]1CCCN1Cc1nc(Cc2ccccc2Cl)no1	3248	9.3	2.1	-0.8	6.6	-2.0	0.3
COc1ccc(C(=O)N(C)Cc2ccccc2)cc1Br	/	5.5	6.2	2.1	8.3	/	-12.3
Cc1cccc(C)c1OCc1cc(C(=O)N2CCC[C@H]2C(N)=O)no1	5336	-1.4	0.9	6.5	5.4	-1.0	1.4
CCOc1ccc(-c2cc(C(=O)N3CCC4(CC3)OCCO4)c3ccccc3n2)cc1	/	2.8	4.4	2.8	-8.3	-45.4	/
O=C(OCc1ccc([N+](=O)[O-])cc1)C1CC(=O)N(Cc2ccccc2Cl)C1 (stereo not drawn)	5955	/	/	/	/	-17.1	9.5
CCN1C(=O)/C(=C\N(C)C)S/C1=N\S(=O)(=O)c1ccc(C)cc1	4181	/	/	/	/	-13.1	-28.9
O=C(Cn1c(=O)oc2ccccc21)Nc1ccc(F)c(F)c1	3270	2.5	-0.1	13.5	3.1	-12.6	4.7
Cc1ccc(CNC(=O)c2ccc(COc3ccccc3)cc2)cc1	2526	0.3	0.3	11.0	3.2	-7.4	1.4
COc1ccccc1NC(=O)CN1CCN(C2c3ccccc3-c3ccccc32)CC1	2197	-5.1	-26.0	/	/	-11.7	-8.3
COc1cccc(Cl)c1NC(=O)N1CCN(c2ccnc3cc(Cl)ccc23)CC1	5907	-7.7	-22.1	2.4	16.4	-22.3	-3.0
CCOc1ccc(CCNC(=O)C2CCCN(S(=O)(=O)N3CC(C)CC(C)C3)C2)cc1OCC (stereo not drawn)	5522	-1.0	3.8	6.8	3.8	-53.0	-5.8
COc1ccc(Cl)cc1NC(=O)Nc1ccc(Br)cn1	17461*	5.6	-9.4	3.5	4.2	-11.9	-5.5
O=C(OCC(=O)N1CCCc2ccccc21)c1cccc(C(F)(F)F)c1	?	3.2	11.0	0.9	14.7	-12.8	-5.1
Cc1ccc(C2CN(c3ccccc3)CC2C(=O)c2ccc(F)cc2)cc1 (stereo not drawn)	2288	-0.5	33.8	/	/	6.6	-1.6
COc1ccc(OC)c(NC(=S)NCCSc2ccc(C)cc2)c1	1977	1.2	5.7	0.1	-1.8	-15.0	-2.2
FC(F)(F)c1cc(-c2ccco2)nc(NCc2ccc(Cl)cc2)n1	6874	-20.6	-8.9	5.7	9.7	-11.7	-10.4
COc1ccc(-c2cc(C(F)F)n3ncc(C(=O)N4CCN(C(=O)c5ccco5)CC4)c3n2)cc1	6519	1.7	-0.1	-9.1	-7.5	9.7	-14.3
CCn1ncc(NC(=S)Nc2ccc3c(c2)OCO3)c1C(N)=O	4589	4.2	12.3	0.0	-3.0	-15.8	3.7
COc1ccc(N=CC2=C(O)CCCC2=O)cc1	3237	3.2	5.1	5.1	3.1	-27.4	-6.3
O=C(O)CC/C(=N\Nc1ccc([N+](=O)[O-])cc1)c1ccccc1	4663	/	/	/	/	-5.8	5.3
O=[N+]([O-])c1cc(-c2csc(NCCc3nc4cc(Cl)c(Cl)cc4n3CCCO)n2)ccc1Cl	4081	9.0	-3.9	8.5	9.0	-28.9	-4.6
COc1ccc2c(c1)CCCN2S(=O)(=O)c1ccc(Cl)cc1	3742	4.6	1.4	-1.0	17.9	-3.2	4.0

Shown with values under each structure: two of the compounds above
Below each compound: Bead autofluor, Sa RN4220 lethal, ugtP null kill, Mtb hypoxia rep, Mtb hypoxia rep growth, PrP 5UTR inh, BJeLR lethal
> Cc1ccc(C2CN(c3ccccc3)CC2C(=O)c2ccc(F)cc2)cc1 (stereo not drawn)
    2288, -0.5, 33.8, /, /, 6.6, -1.6
> COc1ccc(OC)c(NC(=S)NCCSc2ccc(C)cc2)c1
    1977, 1.2, 5.7, 0.1, -1.8, -15.0, -2.2

This is a random part of the collection; overall some 3.9% were active at least once.
